# Source: PubChem BioAssay (National Center for Advancing Translational Sciences (NCATS))
# D2 agonist: activates the human D2 dopamine receptor; P14416; DiscoveRx PathHunter D2 beta-arrestin, luminescence, 90 min; 100% = 57 uM dopamine signal; activation, % (no concentration beside the values); actives 0.084% (n = 360,000); in the data active = activation above about 40%; inconclusive = about 15% to 40%; inactive = below about 15%; further: compound concentration not given in the record; the text of the record calls up to 30% inactive
# Target sequence (P14416 whole entry, looked up): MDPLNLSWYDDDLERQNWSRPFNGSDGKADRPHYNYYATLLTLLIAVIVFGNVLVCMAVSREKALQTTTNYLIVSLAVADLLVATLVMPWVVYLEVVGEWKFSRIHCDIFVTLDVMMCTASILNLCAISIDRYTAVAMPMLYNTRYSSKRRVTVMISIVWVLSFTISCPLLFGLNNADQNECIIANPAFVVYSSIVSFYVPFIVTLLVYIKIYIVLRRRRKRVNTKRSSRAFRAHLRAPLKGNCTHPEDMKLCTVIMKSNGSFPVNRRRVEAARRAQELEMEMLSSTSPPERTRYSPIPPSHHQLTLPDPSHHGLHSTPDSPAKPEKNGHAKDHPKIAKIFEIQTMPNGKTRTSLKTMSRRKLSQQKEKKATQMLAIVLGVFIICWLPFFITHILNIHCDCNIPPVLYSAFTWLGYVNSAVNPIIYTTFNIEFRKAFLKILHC
#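 Agonist mode: compounds alone added to overnight-plated D2 PathHunter cells for 90 min at 37 C, with 57 uM final dopamine (EC100) defining full response. Beta-arrestin recruitment detected by chemiluminescent reagent, read after 1 h at ambient temperature.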
# Menin-MLL FL inh: displaces fluorescein MLL peptide from human menin. Fluorescence polarization, fluorescein-MLL peptide displacement from menin. FP activity change, % at 61.4 µM. 290,000 tested, under 10 active. AID 1766; inconclusive = falling polarisation curve, or a change in total fluorescence; inactive = total fluorescence flat and polarisation flat or rising; no compound was filed as active; the % refers to the polarisation; negative = inhibition;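 further: % of control where 0% means no effect; inhibitors lower the polarisation; unlabelled MLL peptide was the positive control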
# Sfp PPTase inh: inhibitors of Bacillus subtilis Sfp phosphopantetheinyl transferase; Q9F4F7; Biochemical Sfp PPTase activity, qHTS; Potency, µM, for the others: max response, negative = inhibition, actives largely listed as inhibitors; actives 3.5% (n = 310,000); active means well fitted inhibition curve with a large enough effect; inconclusive means small, poorly fitted or top-dose-only effect, or another doubt; inactive means no such curve, though single readings can be large or run the other way;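 further: the enzyme is Sfp with the accession as filed and its product quenches rhodamine fluorescence; potency means the concentration at half of the fitted maximal effect; 0% = enzyme reaction without inhibitor and -100% = no enzyme wells; top concentration of the series not given in the record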
#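 Buffer: 50 mM Hepes-Na pH 7.6, 10 mM MgCl2, 0.01% Nonidet P-40, 0.01% BSA. Enzyme 15 nM, pre-exposed to compound 15 min; substrates then added and fluorescence change tracked over 30 min.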
# gsp ag: gsp mutant agonism. Potency, µM (highest dose often 76.9 µM), inactives show top-dose activation (cAMP increase), most hits filed as activators. gsp mutant cells, cAMP HTRF, 30 min; control for the full effect not named in the record. actives 0.13% (n = 340,000). AID 624287; active = well fitted activation curve with a large enough effect; inconclusive = small, poorly fitted or top-dose-only effect, or another doubt; inactive = no such curve, though single readings can be large or run the other way; cell line not stated here;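 further: phosphodiesterase inhibitor Ro 20-1724 added with compounds to block cAMP breakdown; potency means the concentration at half of the fitted maximal effect; nearly all actives have a fitted effect of over 60% in size; about a fifth of the inactives were tested at one dose only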
#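 Cells stably selected in G418 were plated at 2000/well, grown 16-24 hr, then given compounds in DMSO with the PDE inhibitor […] (300 uM solution added) for 30 min at 37C; cAMP was read by HTRF.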
# PINK1 expr mod: modulators of PINK1 expression | Potency, µM (top dose mostly 76.6 µM), for the others: at the top dose activation (PINK1 increase), hits mostly activators | AID 624263 | actives 0.2% (n = 410,000) | PINK1 immunofluorescence, high-content cytometry, 24 h; active = well fitted activation curve with a large enough effect; inconclusive = small, poorly fitted or top-dose-only effect; inactive = flat fitted curve, though single readings scatter; cell line not stated here;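 further: potency means the concentration at half of the fitted maximal effect; % of control where 0% means no effect; nearly all actives have a fitted effect of over 65% in size; a mitochondrial uncoupler was the plate control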
#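 Cells are seeded, rested 12 hours, then given compound at five concentrations or DMSO for 24 hours. After fixation, blocking and antibody staining, PINK1 amount and mitochondrial localization are scored; CCCP serves as control.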
# ClpP mod: qHTS Assay for Activators of ClpP. ATP-dependent Clp protease proteolytic subunit (Bacillus subtilis (strain 168)), P80244. purified B. subtilis ClpP, FRET peptide cleavage, 20 min. Potency, µM (titrated, usually from 57.5 µM), without a hit: top-dose activity change, negative = active. actives 1.9% (n = 340,000); active = well fitted falling curve with a large enough effect; inconclusive = small, poorly fitted or top-dose-only effect; inactive = no such curve, though single readings can be large or run the other way; further: potency means the concentration at half of the fitted maximal effect; the source files actives as falling curves though it sought activators and does not explain the sign; nearly all actives have a fitted effect of over 65% in size; many hits overshoot -100%
# Target sequence (P80244 whole entry, looked up): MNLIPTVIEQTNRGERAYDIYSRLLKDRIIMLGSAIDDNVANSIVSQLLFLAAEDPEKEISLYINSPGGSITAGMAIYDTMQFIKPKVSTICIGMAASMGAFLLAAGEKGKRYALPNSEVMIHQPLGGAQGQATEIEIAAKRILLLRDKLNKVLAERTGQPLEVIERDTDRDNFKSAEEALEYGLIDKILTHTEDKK
#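 FRET quenching reversal measured ClpP activation: 10 microg/mL B. subtilis ClpP at pH 8 with the FRET-FV decapeptide, read at 430 nm after 320 nm excitation. The 20-min minus 0-min signal was scaled between DMSO/no-enzyme wells and ADEP (5.8 microM final).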
# gsp antag: antagonizes gsp, the McCune-Albright syndrome mutation. actives 0.4% (n = 340,000). gsp-mutant cells, cAMP HTRF, 30 min; control for the full effect not named in the record. AID 624288. Potency, µM (highest dose often 76.9 µM), for inactives: at the highest dose activity change, negative = inhibition, usual class: inhibitors; active = falling curve of any shape with a large fitted effect; inconclusive = falling curve, mostly with a smaller effect; inactive = flat or rising curve; cell line not stated here;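 further: intracellular cAMP measured with PDE inhibitor Ro 20-1724 present during compound exposure; potency means the concentration at half of the fitted maximal effect; on the % scale 0 is the no-effect control and ±100 the full control effect; nearly all actives have a fitted effect of over 65% in size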
#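 HTRF cAMP measurement after 30 min RT detection following 30 min, 37C compound treatment alongside […] (added as 300 uM solution) in G418-selected cells seeded at 2000/well and grown 16–24 h.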
# The depositor's hits bear a star; ? = inconclusive; · = not tested or not shown; [ ] = another dose, or the depositor's remark.
canonical_smiles,D2 agonist,Menin-MLL FL inh,Sfp PPTase inh,gsp ag,PINK1 expr mod,ClpP mod,gsp antag
CCOC(=O)c1oc2c(CN3CCN(CCO)CC3)c(O)c(CC)cc2c(=O)c1-c1nc2ccccc2s1,0.5,3.5,-5%,13%,-0.2%,·,-10%
O=C(CS(=O)(=O)c1cccc(Cl)c1)Nc1ccccc1Cl,-4.1,2.9,8%,0%,2.5%,-0.9%,-4%
COc1ccc(-n2cnnc2SCC(=O)N(C)C2CCS(=O)(=O)C2)cc1 (configuration not stated),-1.7,-1.5,4%,0%,-1.9%,-1.4%,8%
CN(C(=O)CSc1nc(C2CC2)n(-c2ccccc2)n1)C1CCS(=O)(=O)C1 (configuration not stated),-5.2,·,·,10%[15.4 µM],-0.1%,-2.2%,2%
O=[N+]([O-])c1cc(Cl)ccc1N1CCN(c2ccccc2O)CC1,-0.9,3.3,2%,20%[15.4 µM],2.1%,·,-20%
O=C(CSc1nnc(CNC(=O)c2ccc(F)cc2)o1)NCC1CCCO1 (configuration not stated),-2.2,0.3,5%,-13%,-0.9%,-1.5%,9%
C=CCC(O)c1c(-c2ccccc2)nn(C)c1Cl (configuration not stated),-2.4,-5.1,19%,14%[15.4 µM],0.1%,·,7%
CCOC(=O)C(C)Sc1nc(=O)n2cccc(C)c2n1 (configuration not stated),-1.9,-2.3,19%,-4%[15.4 µM],2.1%,·,3%
Cc1cccc(NC(=O)c2ccc(S(=O)(=O)N3CCCCC3)cc2)c1,3.5,·,-5%,3%,-1.2%,-2.2%,-18%
Brc1ccc(C2=Nc3ccccc3C(c3ccncc3)=NN2)cc1,-3.9,-1.4,0%,-12%,?,-1.6%,8%
O=C1/C(=C\c2cccc(O)c2)SC(=S)N1Cc1ccccc1,1.5,4.1,-6%,-65%[inhibitor],5.9%,-1.9%,-4%
CCC(=O)Nc1ccc(OC)cc1OC,-2.1,-0.5,4%,-19%,2.8%,0.1%,15%
Cc1cc2occ(CC(=O)NNC(=O)c3ccccc3)c2cc1C,1.7,·,-2%,10%,0.6%,1.6%,-41%
CC1CCCN(S(=O)(=O)c2ccc(NC(=O)CN3CCN(C)CC3)cc2)C1 (configuration not stated),-2.0,0.0,?,-1%,97%[38.3 µM],-0.9%,4%
CN(C(=O)COC(=O)CNC(=O)C12CC3CC(CC(C3)C1)C2)C1CCS(=O)(=O)C1 (configuration not stated),2.6,0.2,1%,7%,0.9%,-4.0%,7%
CC(C)CCN1CCN(C2CCN(c3ccccc3)CC2)CC1CCO (configuration not stated),-7.8,1.9,-3%,-24%,3.8%,0.5%,14%
COC(=O)C1=C(C)N(CCCC(=O)O)C(=O)NC1c1cc2c(cc1[N+](=O)[O-])OCO2 (configuration not stated),1.4,-4.9,32µM*,9%,0.6%,-7.8%,1%
CC(C)c1nnc(NC(=O)CCCCCN2C(=O)C3C4C=CC(C4)C3C2=O)s1 (configuration not stated),-2.3,2.2,3%,-23%,0.6%,-0.8%,-7%
CC(C)(C)NC(=O)NC(=O)CN1CCN(S(=O)(=O)c2ccc3c(c2)CCCC3)CC1,-3.7,·,·,-13%[15.4 µM],-1.0%,1.7%,-18%
C/C=C(\C)C(=O)NCCN1C2=NC[C@H](C(C)C)N2C[C@@H]1Cc1ccc(OC)cc1,-0.1,-6.9,-12%,-14%,-0.8%,-0.5%,10%
O=C(CNc1ccccc1Cl)c1ccc(Br)cc1,-5.6,4.1,?,4%[15.4 µM],?,-0.4%,2%
COCCn1c(SCC(=O)NN2C(=O)NC(C)(c3ccccc3)C2=O)nnc1-c1ccncc1 (configuration not stated),-3.7,·,·,0%,1.8%,-1.8%,3%
O=C(c1ccc(NS(=O)(=O)c2cccc([N+](=O)[O-])c2)cc1)N1CCN(C(=O)c2ccco2)CC1,6.8,·,·,-3%,2.2%,-0.7%,?
NC(=O)[C@H]1CC2(CC(c3cccc(NC(=O)[C@H]4CCC(=O)N4)c3)=NO2)CN1C(=O)c1cc([N+](=O)[O-])cc([N+](=O)[O-])c1 (some centres not stated),11,-0.8,3%,·,0.9%,1.0%,12%
Cc1cccc(OCCSc2cc(C)nc(N)n2)c1,1.4,1.8,11%,1%,0.1%,-7.4%,-1%
CCOC(=O)Nc1ccc2nc(Sc3ccc(Cl)cc3)sc2c1,2.3,-8.3,20%,?,10%,-3.3%,-14%
Cc1ccc(NC(=O)COC(=O)c2ccco2)cc1S(=O)(=O)N1CCCCC1,-2.8,·,·,-57%[inhibitor],0.7%,-0.1%,·
O=C(Nc1cc([N+](=O)[O-])c2[nH]c(=O)c3ccccc3c2c1)C(F)(F)F,5.1,·,·,-31%[inhibitor],-5.4%,32µM*,-10%
COc1cc(NC(=O)c2cccc(NC3=NC4CS(=O)(=O)CC4S3)c2)cc(OC)c1OC (configuration not stated),-5.9,15,10%,0%,1.0%,-0.3%,12%
CC(C)CCNC(=O)COc1ccc(N(C)S(=O)(=O)c2ccc(F)cc2)cc1,-0.8,1.2,2%,-2%,-1.2%,0.7%,4%
Cc1nc2ccccn2c1C(=O)NNC(=O)Nc1cccc(C(F)(F)F)c1,4.9,0.7,-10%,?,-0.2%,-2.2%,5%
COc1cc(NCC2COc3c(ccc(OC)c3OC)C2=O)c([N+](=O)[O-])cc1OC (configuration not stated),2.0,·,·,·,2.8%,-1.2%,·
CS(=O)(=O)Nc1nnc(SCC(=O)N(c2ccccc2)c2ccccc2)s1,1.6,-0.1,5%,-3%,-1.1%,-1.6%,5%
COc1ccc(/C(C)=N/OC/C(O)=C(\C#N)c2nc3ccccc3[nH]2)cc1,-2.3,12,7%,-22%,2.3%,1.4%,-11%
CC1(c2nnc(-c3ccncc3)o2)CC(c2cccc(Cl)c2)=NO1 (configuration not stated),-2.7,·,·,-17%,1.2%,-0.3%,10%
COC(=O)c1scc(C)c1-n1ccc(C(=O)C(=O)N(C)C)c1,-1.4,-4.3,16%,-19%,-0.5%,-1.5%,9%
COc1ccc(CCNC(=O)c2ccc(-c3cccc([N+](=O)[O-])c3)o2)cc1OC,4.6,0.1,-2%,-15%[15.4 µM],-0.1%,·,?
CCOc1ccc(N(C)S(=O)(=O)c2ccc3[nH]cc(C(=O)NCC(OC)OC)c(=O)c3c2)cc1,-4.0,4.1,16%,-13%,3.9%,-8.5%,-14%
CCOC(=O)c1c(S(=O)(=O)NCc2cccs2)c(C)n(C)c1C,-2.6,1.1,8%,8%,-0.2%,0.7%,14%
O=C(CCN1C(=O)c2ccccc2C1=O)Nc1ccc(F)cc1F,0.9,-1.8,11%,-42%,?,0.2%,9%
C[C@@H]1CN([C@H](C)CO)C(=O)CCCn2cc(nn2)CO[C@H]1CN(C)C(=O)NC1CCCCC1,-2.1,·,·,-33%,-0.5%,0.6%,·
Cc1nc(NCCN2CCOCC2)c2nnn(Cc3ccccc3Cl)c2n1,-0.6,4.7,-6%,5%,2.5%[38.3 µM],-0.5%,-13%
COCCSc1nnc(NC(=O)CS(=O)(=O)c2ccccc2)s1,0.2,0.8,13%,0%,0.3%,·,-8%
CSCCC(NS(=O)(=O)c1ccccc1)C(=O)Nc1nccs1 (configuration not stated),1.7,·,·,15%[15.4 µM],-2.1%,·,14%
O=C(c1cccc(Br)c1)N1CCN(C(=O)N2CCOCC2)CC1,-2.2,-2.1,-1%,-3%,-1.4%,1.6%,7%
CCC(=O)N1N=C(c2ccc(NS(=O)(=O)c3ccc(C)cc3)cc2)CC1c1ccco1 (configuration not stated),14,·,·,4%,-0.1%,-18%,?
CCn1c(-c2cc(-c3cc(OC)ccc3OC)nc3ccccc23)n[nH]c1=S,-2.5,2.1,1%,1%,5.0%[38.3 µM],-20%,-16%
COc1ccc(CCNc2cc(C)nc3c(-c4ccccc4)c(C)nn23)cc1OC,2.5,1.5,-23%,-18%,0.2%,?,?
CCN(CC)C(=O)C1CCC(C)(C(=O)O)C1(C)C (configuration not stated),-3.0,1.9,10%,19%,-0.8%,-0.8%,-3%
CCSc1nnc(NC(=O)c2nc(-c3ccccc3)n(-c3ccccc3)n2)s1,-1.0,-0.3,4%,-44%[inhibitor],-1.1%,0.2%,-13%

# The list continues:
canonical_smiles,D2 agonist,Menin-MLL FL inh,Sfp PPTase inh,gsp ag,PINK1 expr mod,ClpP mod,gsp antag
OCCC1CN(Cc2cnn(-c3ccccc3Cl)c2)CCN1Cc1ccsc1 (configuration not stated),-6.2,1.5,12%,12%[15.4 µM],0.9%,·,-8%
COc1cccc(-c2cnc3c(NC(C)=O)cc(-c4ccsc4)cn23)c1,4.5,·,·,·,0.8%,?,·
COc1ccc(S(=O)(=O)NCC2CCC(C(=O)NCc3ccc(F)cc3)CC2)cc1 (configuration not stated),-2.5,-5.6,-6%,0%,7.0%,-1.9%,15%
O=C(N1CCN(c2ccc(F)cc2)CC1)C12CC3CC(CC(C3)C1)C2,-3.8,-3.7,-15%,2%,-2.0%,0.1%,-6%
CC[C@H](C)[C@@H](CN[C@H](C)CNC)NCCC(c1ccccc1)c1ccccc1,-0.7,-2.6,17%,·,-0.8%,1.8%,12%
O=C(Nc1nc(-c2nc3ccccc3s2)cs1)C1CC1,-1.9,1.0,-17%,-10%,2.4%,4.8%,-16%
O=[N+]([O-])c1ccccc1-n1cnc2ccccc21,-1.2,1.1,5%,-2%,-2.1%,·,5%
CCNC(=S)N/N=C(\C)c1ccco1,1.2,-1.0,56µM*,1%,0.5%,-1.4%,8%
COc1ccc(N2CCN(S(=O)(=O)c3cc4c(cc3C)N(C(C)=O)CCO4)CC2)cc1,-5.8,-2.9,-2%,-3%,4.1%,-0.1%,-13%
COc1ccc(Nc2nc3ccccc3nc2C)cc1,-2.7,0.7,1%,-13%,·,3.1%,3%
